Screening data deposited in PubChem BioAssay by National Center for Advancing Translational Sciences (NCATS).
D2 potentiator: positive allosteric modulators of human D2 dopamine receptor; P14416; DiscoveRx D2 beta-arrestin cells, luminescence, 90 min; 100% = 57 uM dopamine signal; potentiation, % (no concentration beside the values); 0.23% of 360,000 active; AID 624464; active = potentiation of 50% or more; inconclusive = 30% to 50%; inactive = 30% or less;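 further: compound concentration not given in the record; tested on top of an EC20 dose of dopamine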
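D2 cells co-treated with compound plus 50 nM dopamine (EC20) for 90 min at 37 deg C to detect potentiation. Beta-arrestin recruitment was read as enzyme-fragment luminescence after 1 h at ambient temperature. Full response was set by 57 uM dopamine.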
TRPML1 agonist: agonists of human TRPML1 channel. Q9GZU1. activation, % (test concentration not listed). TRPML1-expressing cells, Ca2+ dye fluorescence, FDSS; host cell line not named in the record; reference of the full effect not given here. 0.12% of 410,000 active; in the data active = activation above about 50%; inconclusive = about 30% to 50%; inactive = below about 30%; further: 0% is about no effect; the text of the record puts the active cut at 80%
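Tetracycline-induced TRPML1-DL cells are seeded and incubated overnight before loading with a no-wash Ca2+ dye and quencher. Agonist activity is taken from the 110 s fluorescence read following compound pin-transfer on an FDSS, before EC80 54-4 challenge.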
TRPML1 inh: blocks the human TRPML1 channel; Q9GZU1; activity change, negative = inhibition, % (test concentration not listed); TRPML1-inducible cells, Ca2+ dye fluorescence, FDSS; stronger effect = lower value; inhibition of EC80 agonist-evoked calcium signal; 0.02% of 390,000 active; in the data active means activity change below about -50%; inconclusive means about -30% to -50%; inactive means above about -30%;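 further: stimulus is agonist 54-4 at its EC80 concentration; on the % scale 0 is the no-effect control and ±100 the full control effect; compound concentration not given in the record; the text of the record puts the active cut at -80%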
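TRPML1-DL cells, Tet-induced overnight (~16 h, 37 °C) at 1,500 cells/well, were loaded with Ca8 no-wash dye plus quencher for 45-90 min at room temperature. Compounds were pinned during FDSS kinetic reading; agonist 54-4 at EC80 (4 uM final) then added.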
Six1-Eya2 blk: inhibitors of human Six1/Eya2 interaction. 0.56% of 360,000 active. AlphaScreen GST-Six1/His-Eya2 binding, biochemical; stronger effect = lower value; control for the full effect not named in the record. Q15475+O00167. activity change, % (no concentration beside the values). AID 651725; in the data active = activity change below about -65%; inconclusive = about -30% to -65%; inactive = above about -30%; further: on the % scale 0 is the no-effect control and ±100 the full control effect; compound concentration not given in the record
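AlphaScreen luminescence read after one hour at 37 °C in darkness. Pin-transferred compounds met GST-Six1 and His-Eya2 protein (5X stock 250 nM/500 nM) plus glutathione donor and Ni-chelate acceptor beads (5X, 50 ug/mL).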
CtBP-E1A blk: inhibitors of CtBP/E1A interaction; AlphaScreen GST-E1A/His-CtBP binding, 1536-well; stronger effect = lower value; control for the full effect not named in the record; 0.49% of 340,000 active; AID 651724; activity change, % (concentration not given with the values); in the data active means activity change below about -65%; inconclusive means about -30% to -65%; inactive means above about -30%; further: on the % scale 0 is the no-effect control and ±100 the full control effect
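Steps: dispense buffer (Tris pH 8.0, NaCl 300 mM, TCEP 1 mM, BSA, Tween 20); add 5X protein mix (GST-E1A, His-CtBP, 125 nM each); pin 23 nL compound; 2 h at 37 °C, dark; add 5X beads (50 ug/mL); 1 h; read.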
TRPV1 PAM: human TRPV1 potentiation; 0.02% of 320,000 active; TRPV1-expressing cells, Fluo-8 calcium influx, capsaicin EC20 potentiation; host cell line not named in the record; control for the full effect not named in the record; Q8NER1; potentiation, % at 8.33 µM; active means potentiation above 80%; inconclusive means 30% to 80%; inactive means below 30%; further: 0% is about no effect
Target sequence (Q8NER1 whole entry, looked up): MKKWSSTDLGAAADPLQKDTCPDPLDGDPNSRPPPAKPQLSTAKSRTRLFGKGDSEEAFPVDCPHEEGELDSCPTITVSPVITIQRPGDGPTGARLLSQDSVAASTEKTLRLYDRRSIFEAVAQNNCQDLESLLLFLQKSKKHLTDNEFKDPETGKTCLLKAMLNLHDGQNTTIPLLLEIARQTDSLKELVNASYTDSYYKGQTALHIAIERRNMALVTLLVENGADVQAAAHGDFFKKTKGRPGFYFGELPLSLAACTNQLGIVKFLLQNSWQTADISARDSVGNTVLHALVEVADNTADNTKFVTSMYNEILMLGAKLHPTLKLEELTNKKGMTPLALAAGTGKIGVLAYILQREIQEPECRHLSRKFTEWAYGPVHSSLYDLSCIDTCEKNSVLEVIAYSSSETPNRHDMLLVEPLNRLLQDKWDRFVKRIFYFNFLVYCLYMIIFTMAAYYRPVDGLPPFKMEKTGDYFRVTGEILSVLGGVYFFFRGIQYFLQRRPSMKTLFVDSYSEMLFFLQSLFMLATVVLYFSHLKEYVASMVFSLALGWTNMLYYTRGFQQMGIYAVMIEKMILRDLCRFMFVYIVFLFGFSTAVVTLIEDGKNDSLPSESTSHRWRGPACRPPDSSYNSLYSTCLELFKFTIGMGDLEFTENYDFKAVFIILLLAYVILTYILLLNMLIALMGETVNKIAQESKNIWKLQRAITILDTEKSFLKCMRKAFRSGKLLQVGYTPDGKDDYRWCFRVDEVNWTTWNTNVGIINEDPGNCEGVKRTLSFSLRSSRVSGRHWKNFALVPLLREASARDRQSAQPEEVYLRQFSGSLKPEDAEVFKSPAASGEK
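Fluo-8 calcium influx in TRPV1-expressing cells, kinetic read (ex 480/em 520 nm). Compound added and read 3 min for agonist activity, followed by capsaicin at EC20 final and 2 min further read for enhancement.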
* marks the source's active call; other numbers are inactive results; ? = inconclusive; · = not tested or not shown. Not a hit list; about 0.95% have a hit in one of these screens.

The opening five records, ahead of the listing:
structure,D2 potentiator,TRPML1 agonist,TRPML1 inh,Six1-Eya2 blk,CtBP-E1A blk,TRPV1 PAM
O=C(OCc1ccc([N+](=O)[O-])cc1)c1ccccn1,-1,-0.6,11,-1,5,9
CSc1cccc(NC(=S)N(CCCN2CCC(C)CC2)Cc2cccs2)c1,-18,1.3,25,-7,-9,-6
Cc1cccc(C)c1NC(=O)CN(C)C(=O)c1ccc2c(=O)n3c(nc2c1)CCC3,-10,0.2,9,0,·,-21
CC(=O)Nc1ccc(S(=O)(=O)NCCC(=O)Nc2ccc(C)c(Cl)c2)cc1,-8,1.1,9,0,-8,-13
CCOC(=O)CN(C(=O)CNC(=O)c1cccs1)C(C(=O)NC1CCCCC1)c1cccnc1 (stereo not drawn),-5,0.2,26,-13,11,8

All compounds of this part (from the top)
structure,D2 potentiator,TRPML1 agonist,TRPML1 inh,Six1-Eya2 blk,CtBP-E1A blk,TRPV1 PAM
O=C(OCc1ccc([N+](=O)[O-])cc1)c1ccccn1,-1,-0.6,11,-1,5,9
CSc1cccc(NC(=S)N(CCCN2CCC(C)CC2)Cc2cccs2)c1,-18,1.3,25,-7,-9,-6
Cc1cccc(C)c1NC(=O)CN(C)C(=O)c1ccc2c(=O)n3c(nc2c1)CCC3,-10,0.2,9,0,·,-21
CC(=O)Nc1ccc(S(=O)(=O)NCCC(=O)Nc2ccc(C)c(Cl)c2)cc1,-8,1.1,9,0,-8,-13
CCOC(=O)CN(C(=O)CNC(=O)c1cccs1)C(C(=O)NC1CCCCC1)c1cccnc1 (stereo not drawn),-5,0.2,26,-13,11,8
CN1c2ccccc2C(O)=C(C(=O)Nc2ccccc2)S1(=O)=O,-3,0.8,-10,16,7,·
CCOCCCn1c(=S)[nH]c2cc(C(=O)N3CCOCC3)ccc2c1=O,1,0.0,25,3,-6,16
CCC(C)NC(=O)[C@H]1N2C(=O)c3ccccc3C2SC1(C)C (stereo partly drawn),-4,·,·,15,-3,-21
O=C(CN1CCN(CC(=O)Nc2ccc3c(c2)OCO3)CC1)Nc1ccc(F)cc1,-4,-0.9,4,-1,1,?
CC(c1ccccc1)C1OCC(C[N+]2(C)CCCCC2)O1 (stereo not drawn),-27,-0.6,19,9,13,-22
Cc1onc(-c2c(F)cccc2Cl)c1C(=O)NC(=S)NCc1cccnc1,14,-1.3,-15,-3,18,19
CCCN(CCC)CC(O)COc1ccccc1C(=O)Nc1ccccc1 (stereo not drawn),-10,-0.2,-1,-21,4,?
COc1ccc(C(=O)Nc2ccccc2C(=O)NCc2cccnc2)cc1OC,17,-0.2,11,-2,5,2
O=C(Nc1ccccc1)N1CCC(c2nc(-c3ccc(S(=O)(=O)N4CCOCC4)cc3)no2)CC1,11,-0.5,-13,-1,4,3
Cc1cc(C)c(NC(=O)Cn2nc(-c3ccccc3)nc2-c2ccccc2)c(C)c1,-15,1.5,54,5,-2,12
COc1ccc(OCc2nnc(NC(=O)Nc3ccc(F)cc3)s2)cc1,1,0.0,-3,19,·,9
CCC1CCCCN1CCCNC(=O)C1CCN(S(=O)(=O)N2CCC3(CC2)OCCO3)CC1 (stereo not drawn),-2,-0.5,-5,4,8,4
Cc1ccc(C2CC(C(F)(F)F)n3nc(C(=O)NCCN4CCOCC4)cc3N2)cc1 (stereo not drawn),-19,0.0,-5,21,4,-22
CCC1Oc2ccccc2N(CC(=O)NCCCN2CCCCC2C)C1=O (stereo not drawn),-4,-0.3,-16,4,1,?
CCN(CC)S(=O)(=O)c1ccc(N2CCOCC2)c(NC(=O)c2cc([N+](=O)[O-])ccc2Cl)c1,-3,0.1,-10,8,13,-1
CCOc1ccc(-c2nc(N)ncc2-c2ccc(OC)cc2)c(O)c1,-6,1.8,31,?,0,1
COC(=O)/C=C(\C)NC(=O)c1ccc(F)cc1,1,1.4,-16,15,0,8
c1ccc(-c2ccc(CN3CCN(c4ncccn4)CC3)cc2)cc1,29,0.3,-6,-3,-7,-34
NC(=O)c1ccccc1OCc1nnc(-c2ccccc2Br)o1,0,0.3,19,4,-2,?
CCOc1ncccc1C(=O)OCC(=O)c1ccc(Cl)s1,-4,0.3,-17,7,11,3
CCc1cc2ccccc2nc1SCC(=O)N1CCN(C(=O)c2ccco2)CC1,-19,2.2,-8,-9,-1,-1
CC(Oc1ccccc1Cl)C(=O)N(Cc1cccs1)C1CCS(=O)(=O)C1 (stereo not drawn),-4,0.1,-3,7,-3,-15
CCN(CC)C(=O)C1CCN(Cc2ccc(OCc3ccccc3)cc2)CC1,-2,-0.2,-6,4,9,6
CCCn1nc2cc(C(=O)NCc3ccc(C)cc3)ccc2c1OC,-4,-0.2,0,3,7,16
O=C1CCC(C(=O)N2CCCC2)CN1Cc1cccc(C(F)(F)F)c1 (stereo not drawn),15,-0.2,-20,-2,12,-11
Cc1cc(OCC(=O)NC2CC2)c2c(C)cc(=O)oc2c1,4,0.0,-5,9,·,10
CC(NS(=O)(=O)c1ccc(F)cc1)C(=O)Nc1ccc2c(c1)OCCO2 (stereo not drawn),-32,-0.5,-17,19,-5,-7
NS(=O)(=O)c1ccc(CNc2nc(-c3cccnc3)nc3ccccc23)cc1,4,2.4,14,?,?,-6
O=C(NCc1ccccn1)C(=O)Nc1cccc2ccccc12,-4,0.7,-20,3,-6,-5
O=C(OCC#CCSc1nnc(-c2cccc3ccccc23)o1)c1ccco1,3,0.0,3,11,19,-9
CCN(CC)S(=O)(=O)c1ccc(C(=O)OCCN2C(=O)CCC2=O)cc1,-3,0.4,-2,-1,3,·
Cc1cc(=O)[nH]c(NN=C2C3CC4CC(C3)CC2C4)n1,-9,·,·,-16,-1,-2
O=[N+]([O-])c1ccc(O)c(Nc2c([N+](=O)[O-])ccc3nonc23)c1,-3,0.7,-7,1,-23,4
O=C(c1ccco1)N1CCN(c2ccc(Cl)c(Cl)c2)CC1,-6,0.2,14,-6,2,·
CC(C)(C)C(=O)c1sc(Nc2ccccc2)nc1N,-10,4.1,4,-19,10,3
COc1cccc2c1c(NC(=O)Nc1ccc(F)cc1F)nn2C,-8,-0.3,28,7,9,10
COc1ccc(CCC(=O)Nc2ccc(-c3noc(-c4ccc(OC)c(OC)c4)n3)cc2)cc1,13,-0.3,3,2,8,13
Cc1csc(NC(=O)Cc2nn(C)c(=O)c3ccccc23)n1,-9,0.1,1,-11,2,-5
CCN(CC(=O)Nc1ccc(N2CCOCC2)cc1)Cc1nc2ccccc2c(=O)[nH]1,-13,1.2,-13,-2,-4,?
Cc1cc(=O)n2ncnc2n1COCCO,-10,0.1,-12,11,-3,11
CC(=O)c1c(C)nc(Nc2nc3ccccc3s2)nc1C,2,5.4,-1,-6,-3,10
O=C(CCN1C(=O)COc2ccccc21)N1CCN(c2ccccn2)CC1,-1,-0.1,1,5,2,·
O=C(C[C@@H]1C/C=C\C[C@@H](Cc2ccc(F)cc2)C(=O)OC[C@@H](Cc2ccccc2)NC1=O)N[C@H](CO)Cc1ccccc1,-4,-0.3,-12,3,1,·
C=CCN(c1ccc(C(N)=O)cc1)S(C)(=O)=O,-10,0.1,-11,5,17,2
S=C(NCc1ccco1)NCC(c1ccco1)N1CCCCC1 (stereo not drawn),-26,-0.5,-12,-2,4,-6

Further results:
structure,D2 potentiator,TRPML1 agonist,TRPML1 inh,Six1-Eya2 blk,CtBP-E1A blk,TRPV1 PAM
COc1ccc(Cl)cc1C(=O)NCCc1ccc(S(=O)(=O)NC(=O)NC2CCCCC2)cc1,-10,-0.6,-11,2,-6,4
Oc1ccc(/C=N/Nc2cc(N3CCOCC3)nc(N3CCOCC3)n2)cc1,-20,-0.2,49,-26,-17,·
COc1ccccc1-c1coc2c(CN3CCC(C)CC3)c(O)ccc2c1=O,-4,-0.2,-6,1,-20,-10
O=C(Nc1ccccc1)N1CCSc2ccccc21,-4,1.5,2,4,2,-26
CCc1nc2cc(CC(=O)O)ccc2o1,-7,-0.4,20,2,-3,6
CCc1nc2ccc(C(=O)N(C)Cc3ccco3)cn2c1N(CC)Cc1cccc(Br)c1,-2,1.3,·,2,0,·
C[n+]1c(/C=C/c2ccc3c(c2)OCO3)ccc2ccccc21,-1,0.8,-9,-7,-12,5
CCCCCCSc1ccc([C@@H]2[C@H]3C(=O)N(CC)C(=O)[C@H]3[C@]3(C(=O)OC)CCCCN23)cc1,-36,0.0,0,0,-24,·
O=C(Cc1ccc(Cl)cc1)Nc1ccc(S(=O)(=O)Nc2ncccn2)cc1,-3,-0.2,18,0,5,3
Cc1cc(C)c(S(=O)(=O)NCC(=O)NCc2ccccn2)c(C)c1,-6,-0.8,0,2,3,-4
Cc1cc[n+](CC(=O)c2cccs2)cc1,-22,0.6,44,3,2,9
Cc1c(Nc2nc3ccccc3nc2NS(=O)(=O)c2cccs2)c(=O)n(-c2ccccc2)n1C,5,-0.7,0,-16,-27,3
CCc1nc(SCC(=O)OC)c2c3c(sc2n1)COC(C)(C)C3,-10,0.0,13,4,11,-17
CCCS(=O)(=O)NC(=O)C1(C)CCN(C(=O)c2cc(C)nn2C(C)(C)C)C1 (stereo not drawn),1,0.2,·,5,-2,·
O=C(c1ccc2c(c1)N(Cc1ccc(F)cc1)CCS2)N1CCOCC1,-1,-0.3,3,-2,1,-24
Nc1nonc1-c1nc2ccccc2n1CC(=O)O,-11,-0.1,4,0,-5,-3
OC(c1ccc(F)cc1)c1nc(-c2cccc(F)c2)cs1 (stereo not drawn),3,-0.6,·,10,13,·
CCOC(=O)c1cc(S(=O)(=O)NC2CCN(C(=O)OCC)CC2)cn1C,-12,0.1,11,0,-5,5
CC(C)NC(=O)N(C)C[C@H]1Oc2ccc(NC(=O)CCC(F)(F)F)cc2C(=O)N([C@H](C)CO)C[C@@H]1C,-11,-0.2,41,-1,10,·
Cc1ccc(NC(=O)CSc2ccc3c(c2)OCCO3)c(O)c1,-31,-0.1,-6,-17,-7,19
CCCN(CC(=O)Nc1ccccc1C)C(=O)C1CC(=O)N(c2ccc(CC)cc2)C1 (stereo not drawn),-2,0.5,8,2,1,-5
CCOc1ccc(NC(=O)Cc2c(O)c3ccccc3[nH]c2=O)cc1,-19,-0.4,25,5,3,24
Cc1ccc(CCNC(=O)C2CCCN(S(=O)(=O)c3c(C)noc3C)C2)cc1 (stereo not drawn),-3,-0.4,6,5,1,-8
CCC1CCCCN1CCCNC(=O)c1ccc(CS(=O)(=O)Cc2ccc(Cl)cc2)o1 (stereo not drawn),-15,-0.6,-15,4,2,4
O=C(CCN1N=C(c2ccccc2)CCC1=O)NC1CCCC1,-3,-0.7,-1,6,·,-1
